FGF22 binding – FGF22 (human) thermal shift binding; recombinant FGF22 thermal shift, SYPRO orange fluorescence; percent of sucrose octasulfate shift, DMSO zero; calls only at 9.99 µM; Q9HCT0; 340,000 compounds, 1.5% hits;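 active means melting point raised past a set limit in the mean and every replicate; inconclusive means no clear call; three in four hits are not shown here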
MLL AF4-AF9 inh – MLL-AF4/AF9 protein interaction inhibition; AlphaScreen, biotin-AF4 peptide binding to FLAG-AF9; inhibition, % at 10 µM; 350,000 compounds, 0.47% hits;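 active means every replicate reaching a set inhibition limit, whatever the replicate mean, cut at about 25% in these data; inconclusive means mean inhibition reaches that limit but some replicates miss it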;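 further: 0% = plate neutral control median and 100% = total signal loss; the record names both 10 and 1 µM as test concentration; the first replicate is given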
Target sequence (P42568 whole entry, looked up): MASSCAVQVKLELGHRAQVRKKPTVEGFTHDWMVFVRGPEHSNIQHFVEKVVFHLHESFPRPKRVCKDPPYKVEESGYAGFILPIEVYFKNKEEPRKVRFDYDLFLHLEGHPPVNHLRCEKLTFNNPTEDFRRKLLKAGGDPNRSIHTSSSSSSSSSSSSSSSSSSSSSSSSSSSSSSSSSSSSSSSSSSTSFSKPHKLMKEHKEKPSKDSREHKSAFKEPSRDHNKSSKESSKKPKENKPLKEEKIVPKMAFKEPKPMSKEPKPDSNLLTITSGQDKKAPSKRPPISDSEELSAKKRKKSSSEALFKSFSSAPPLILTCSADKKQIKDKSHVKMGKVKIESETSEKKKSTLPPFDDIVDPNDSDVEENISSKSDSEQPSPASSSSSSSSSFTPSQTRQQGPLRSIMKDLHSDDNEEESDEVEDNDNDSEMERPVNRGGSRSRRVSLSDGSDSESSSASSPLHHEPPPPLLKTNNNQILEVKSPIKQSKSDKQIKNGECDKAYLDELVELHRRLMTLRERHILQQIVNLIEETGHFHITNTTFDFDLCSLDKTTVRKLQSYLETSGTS
Vif TR-FRET – inhibitors of Vif binding to APOBEC3G peptide, primary screen, biochemical, TR-FRET, GST-Vif 1-94, biotin-A3G peptide, dose response retest (AID 1117319). TR-FRET GST-Vif / biotin-A3G peptide binding; higher % means a stronger effect; test concentration not given here; strong numbers were not always called active. inhibition, %; hits with a dose series show IC50 in µM. 260,000 compounds, 0.57% hits;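 active means above the screen mean plus three standard deviations and confirmed in dose response; inconclusive means results disagree or hit not tested in dose response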;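 further: Vif residues 1-94 fused to GST binding biotinylated APOBEC3G peptide 110-148; 0% = full assay without inhibitor and 100% = GST in place of GST-Vif; retest series ran down from 100 µM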
HNF4A DNA FP – change in binding of human HNF4 alpha to DNA; P41235; HNF4a-FITC DNA binding, fluorescence polarization, 1 h; activity change, % at 10 µM; 360,000 compounds, 0.3% hits; AID 1224865; in the data active means activity change above about 30%, passing the limit was not always enough;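 further: controls were the assay level and a saturating level of protein; the project sought stronger binding though the title names inhibitors; some compounds called inactive have numbers as strong as hits; positive values seem to mean higher polarization but the record does not say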
Target sequence (P41235 whole entry, looked up): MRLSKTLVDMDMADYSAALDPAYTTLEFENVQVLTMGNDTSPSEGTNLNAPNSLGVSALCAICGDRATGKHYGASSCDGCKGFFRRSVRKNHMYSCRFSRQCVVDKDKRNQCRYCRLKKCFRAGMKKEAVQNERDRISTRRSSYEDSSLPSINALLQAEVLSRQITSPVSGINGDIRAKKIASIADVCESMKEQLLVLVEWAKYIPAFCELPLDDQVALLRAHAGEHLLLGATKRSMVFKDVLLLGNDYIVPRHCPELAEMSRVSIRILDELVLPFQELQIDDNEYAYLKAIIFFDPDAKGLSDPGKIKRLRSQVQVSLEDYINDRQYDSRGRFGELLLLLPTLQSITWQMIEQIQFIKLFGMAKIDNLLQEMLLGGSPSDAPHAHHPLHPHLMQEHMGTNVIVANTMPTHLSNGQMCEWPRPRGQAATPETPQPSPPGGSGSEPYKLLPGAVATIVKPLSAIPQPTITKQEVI
UCH37 inh – human UCH37 deubiquitinating enzyme inhibition. Q9Y5K5. purified proteasome/UCH37, Ub-AMC cleavage fluorescence. inhibition, % (test concentration not listed). 330,000 compounds, 0.33% hits. AID 588478;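 active means mean of two replicates above 20%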;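 further: 0% = compound-free wells with enzyme and 100% = wells lacking proteasome; stock transfer was 100 nL into about 20 µL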
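System: Proteasome-associated human UCH37 deubiquitinase; Input: 0.15 nM proteasome in added enzyme buffer; Also added: Ub-AMC substrate from 1 µM stock; Incubation: 30 min compound-proteasome preincubation then 25 min substrate reaction, room temperature; Detection: fluorescence, ex 355 nm, em 460 nm; Read-out: % inhibition of Ub-AMC cleavage fluorescence; Benchmarks: no-proteasome and no-compound wells.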
RanGTP-Imp inh – inhibitors of RanGTP-importin-beta interaction, primary screen, biochemical, FRET, CFP-Ran, YFP-importin-beta, homogeneous; inhibition, % (no concentration beside the values); 300,000 compounds, 1.1% hits; cell-free CFP-Ran/YFP-importin-beta FRET ratio;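 active means most replicates above 15%; inconclusive means exactly half above 15%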;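 further: 0% = DMSO wells and 100% = Ran loaded with GDP instead of GTP; wells of about 40 µL received 100 nL stock; the first replicate is given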
Ecoli growth – E. coli growth inhibition | Escherichia coli growth, OD600, 23 h; stronger effect = lower value | OD600 absorbance (test concentration not listed) | 330,000 compounds, 0.21% hits;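 active means OD600 absorbance below the run mean of sample wells minus 3.6 SD, in any replicate, cut at about 0.56 in these data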;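 further: stock transfer was 300 nL into about 60 µL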
Active calls of the source: *; i = inactive; ? = inconclusive; / = not tested or not shown; & = joins results of further samples. These rows are one share of the data; the hit share may differ from the screen's.

SMILES	FGF22 binding	MLL AF4-AF9 inh	Vif TR-FRET	HNF4A DNA FP	UCH37 inh	RanGTP-Imp inh	Ecoli growth
N#CCSc1nc(-c2ccccc2)nc2ccccc12	i	-18	-10%	-1.7	1.5	0.4	0.74
CC(=O)C1=C(C)N(Cc2ccccc2)C(=O)N[C@H]1c1cccc(F)c1	i	2.8	/	-1.6	2.7	-0.3	/
COc1ccc2c(Cl)c(C(=O)NC3CCS(=O)(=O)C3)sc2c1 (stereo unspecified)	/	/	-3%	2.3	-4.6	0.8	0.73
CSc1nnc(-c2ccccc2Cl)n1N	/	/	-1%	1.3	4.4	5.3	0.76
CC(C)(C)OC(=O)N1CCCC(C(=O)Nc2cccc(C(=O)N3CCCC3)c2)C1 (stereo unspecified)	i	-0.9	/	0.9	-1.9	/	0.69
CC1(C)COCN1C(=O)c1ccc(Cl)c(Cl)c1	i	-3.3	-3%	-0.2	4.2	-0.4	0.67
CN(C(=O)CC1C(=O)NCCN1Cc1c(F)cccc1Cl)C1CCOCC1 (stereo unspecified)	i	2.8	/	1.1	-9.0	-1.7	0.67
O=C(CSc1nnc2c(n1)[nH]c1ccc(F)cc12)NCc1ccc(F)cc1	i	2.0	/	3.1	2.0	-1.0	0.67
COc1ccc(C2/C=C\CC(NS(=O)(=O)c3ccc(C)cc3)CC(=O)N2Cc2ccccc2F)cc1 (stereo unspecified)	/	/	-1%	2.0	1.1	/	0.71
CN(c1ccc(C(=O)N2CCCCCC2)cc1)S(=O)(=O)c1ccc(Cl)cc1	i	-1.0	/	-0.6	0.5	3.6	0.72
Cc1ccc(N(C(=O)c2csnn2)C(C(=O)NC(C)(C)C)c2ccncc2)cc1 (stereo unspecified)	i	2.0	3%	0.5	4.7	0.2	0.67
CC1CCN(C(=O)COC(=O)c2ccc(F)c(S(=O)(=O)N3CCOCC3)c2)CC1	i	-2.9	-3%	4.0	-2.1	-3.1	0.63
COC(=O)C(C)(C(=O)OC)c1ccc(C(F)(F)F)cc1[N+](=O)[O-]	i	-4.1	-10%	3.0	0.8	?	0.67
CSCCC(NC(=O)c1ccco1)C(=O)NCC1CCCO1 (stereo unspecified)	i	-0.7	-10%	-1.3	3.3	/	0.68
CC1(C(=O)NS(=O)(=O)c2ccccc2Cl)CCN1C(=O)Cc1cccc2ccccc12 (stereo unspecified)	i	1.7	/	0.9	/	/	/
COCCNC(=O)NC(=O)COC(=O)c1cccn1C	i	0.7	21%	-1.2	-3.1	/	0.66
Cc1cc2cc(CN(Cc3cccs3)Cc3nnnn3CC3CCCO3)c(=O)[nH]c2cc1C (stereo unspecified)	i	3.2	-4%&1%	-2.7	2.2	?	0.69
Cc1ccc(C(OCCN(C)C)c2cccc(C(F)(F)F)c2)cc1 (stereo unspecified)	i	0.7	-3%	1.3	5.5	4.5	0.66
CCCc1nnc(SCC(=O)N2CCCCC2C)n1CC (stereo unspecified)	/	/	-5%	-0.3	0.9	0.3	0.68
CC(=O)Nc1ccc(C(=O)CCl)cc1	i	/	/	4.2	5.8	/	0.41*

An excerpt from above, limited to FGF22 binding and Ecoli growth.
Structure	FGF22 binding	Ecoli growth
COc1ccc(C2/C=C\CC(NS(=O)(=O)c3ccc(C)cc3)CC(=O)N2Cc2ccccc2F)cc1 (stereo unspecified)	/	0.71
CCCc1nnc(SCC(=O)N2CCCCC2C)n1CC (stereo unspecified)	/	0.68

The list goes on:
SMILES	FGF22 binding	MLL AF4-AF9 inh	Vif TR-FRET	HNF4A DNA FP	UCH37 inh	RanGTP-Imp inh	Ecoli growth
Cc1sc(NC(=O)CSc2n[nH]c(N)n2)c(C#N)c1C	i	2.0	/	17	/	/	/
CC(C)Oc1cc(F)ccc1-c1cc(C(=O)NCc2ccccc2)[nH]n1	i	-1.5	/	0.9	/	/	/
CC(C)Nc1nc(Nc2ccccc2Cl)c2sccc2n1	i	1.5	/	4.4	/	/	/
O=C(CSc1cccc[n+]1[O-])Nc1ccc(Br)cc1Br	i	-0.2	3%	3.8	0.4	/	0.69
CN(C)C(=O)CCC(=O)N1CCCC(C(=O)c2ccc3c4c(cccc24)CC3)C1 (stereo unspecified)	i	2.0	-6%	-0.9	-192	-2.5	0.66
COc1ccc(-c2c(-c3ccc(OC)cc3O)nc(C)nc2C(F)(F)F)cc1	i	2.2	1%	6.8	3.0	1.8	0.64
CSc1ccc(/C=N/NC(=O)CNc2cccc3ccccc23)cc1	i	0.2	23%	-3.2	/	?	/
COc1ccc(CNS(=O)(=O)c2cc(-c3cc(C)no3)ccc2C)cc1OC	i	-3.6	/	1.8	0.6	2.3	0.67
Cc1ncsc1C(=O)Nc1nc2c(s1)CC(C)CC2 (stereo unspecified)	/	/	1%	-0.9	1.6	4.6	0.73
NNC(=S)NC1CC2CC1C1C=CCC21 (stereo unspecified)	i	/	0%	0.9	4.1	-5.2	0.65
O=[N+]([O-])c1cccc(/C=N/NS(=O)(=O)c2ccccc2)c1	i	-1.1	7%	-0.1	/	3.5	/
COC(=O)c1cc(NS(=O)(=O)c2ccc3c(c2)c(=O)n(C)c(=O)n3C)cc(C(=O)OC)c1	i	-0.7	/	-1.6	1.5	6.4	0.62
COc1ccc(S(=O)(=O)N(Cc2ccccc2)Cc2nc(-c3ccccc3)no2)cc1	/	/	?	3.1	6.2	/	0.79
Cn1c(SCC(=O)NN2C(=O)NC(C)(c3ccccc3)C2=O)nnc1-c1ccncc1 (stereo unspecified)	i	-2.1	/	-2.4	-2.5	/	0.71
Cc1nc2ccc(C(=O)Nc3ccc4c(c3)OCC(=O)N4)cn2c1N(C)C(=O)CCc1ccccc1	i	6.9	/	-5.0	/	/	/
CCOC(=O)c1cc(C)nc(S(C)(=O)=O)c1C#N	i	-1.6	-12%	2.9	-29	-1.2	0.63
Cc1ccc(NC(=O)C(=O)NCC2CCCN2S(=O)(=O)c2cccs2)cc1C (stereo unspecified)	i	-0.6	-6%	4.2	3.0	5.7	0.66
C[C@H](CO)N1C[C@H](C)[C@@H](CN(C)S(=O)(=O)c2cccs2)Oc2ccc(NC(=O)Nc3ccc4c(c3)OCO4)cc2C1=O	i	6.2&9.1	/	-1.9	2.9	/	/
CC(C)CN(C(=O)C1CCCO1)C1CCS(=O)(=O)C1 (stereo unspecified)	i	-12	-2%	1.0	1.8	-4.2	0.68
O=S1(=O)c2ccc(Br)cc2N2CCC[C@@H]2CN1Cc1ccc(Cl)cc1	i	-1.6	/	2.7	/	/	/
O=S(=O)(c1ccc(Cl)nc1)N1CCC(Cc2ccccc2)CC1	i	1.4	/	3.0	2.7	/	0.71
Cc1noc(C)c1S(=O)(=O)N(C)Cc1ccccc1	i	-1.2	?	2.8	3.5	4.0	0.72
Cc1ccc(S(=O)(=O)N2CCOCC2)cc1C(=O)NCc1cn2ccsc2n1	/	/	4%	0.6	2.2	7.4	0.79
Cc1ccc(Sc2c(C=O)c3ccccc3n2C)cc1	/	/	9%	1.6	3.4	3.0	0.7
Cc1ccccc1/C=N/NC(=O)CSc1nc2ccccc2o1	/	/	?	-0.8	/	-0.2	/
O=C(O)c1ccccc1OCCOCCOc1ccccc1C(=O)O	/	/	0%	2.2	-0.2	/	0.79
COc1ccc(NS(=O)(=O)c2cc(NC(=O)c3cccc(OCc4c(C)noc4C)c3)ccc2OC)cc1	/	/	/	1.1	0.3	2.5	0.67
COc1cc(OC)c2c(-c3cccc(-c4ccc(OC)c(F)c4)c3)cc(=O)oc2c1	i	0.6	2%	-1.6	-0.4	/	0.72
CCc1nnc(NC(=O)CCC(=O)NCc2ccccc2OC)s1	/	/	14%	3.2	0.3	?	0.66
CC(C)[C@@H](CO)NC(=O)c1ccc2c3n(nc2c1)-c1ccc(Cl)cc1CO3	i	/	15%	-2.7	-2.4	-5.6	/
COc1ccc(S(=O)(=O)N2CCCCC2c2cc(C(=O)Nc3ccccc3)no2)cc1 (stereo unspecified)	i	-5.1	/	-1.2	/	/	/
C[C@H]1CN([C@@H](C)CO)S(=O)(=O)c2ccc(C#Cc3ccccn3)cc2O[C@H]1CN(C)Cc1ccc(F)cc1	i	-0.1&1.5&2.6	3%	-1.4	/	/	/
O=C(c1cc(COc2ccc(F)cc2Cl)on1)N1CCCC(OCc2cccnc2)C1 (stereo unspecified)	i	1.9	2%	0.4	6.4	0.8	0.68
COC(=O)c1ccc(COC(=O)CNC(=O)c2cccc(OC)c2)o1	i	0.1	-7%	0.9	-2.4	/	0.7
O=C(Oc1ccccc1)c1ccc(NC(=O)c2ccco2)cc1	i	-1.4	-10%	2.3	3.2	0.8	0.7
Cc1nn(-c2ccccc2)cc1/C=N/O	/	/	67%	0.4	/	?	/
CCOC(=O)CNC(=O)CN1C(=O)CCSc2ccccc21	i	4.4	5%	-1.2	5.2	3.3	0.71
CCOc1cc(CNCCc2ccc(S(N)(=O)=O)cc2)cc(Cl)c1OCc1ccccc1	i	6.9	1%&-1%	-2.5	7.1	-7.1	0.6
COc1ccc2cc3cc(C(=O)Nc4ccccc4N4CCN(C)CC4)oc3nc2c1	/	/	0%	-1.0	-9.1	1.8	0.71
CSc1nc(S(C)(=O)=O)nc2[nH]c(=O)[nH]c12	i	-1.8	7%	3.4	1.6	/	0.71

Two neighbouring records out of the list so far, quoted:
SMILES	FGF22 binding	MLL AF4-AF9 inh	Vif TR-FRET	HNF4A DNA FP	UCH37 inh	RanGTP-Imp inh	Ecoli growth
COc1ccc2cc3cc(C(=O)Nc4ccccc4N4CCN(C)CC4)oc3nc2c1	/	/	0%	-1.0	-9.1	1.8	0.71
CSc1nc(S(C)(=O)=O)nc2[nH]c(=O)[nH]c12	i	-1.8	7%	3.4	1.6	/	0.71

Next results.
SMILES	FGF22 binding	MLL AF4-AF9 inh	Vif TR-FRET	HNF4A DNA FP	UCH37 inh	RanGTP-Imp inh	Ecoli growth
O=C(O)Cc1nc(-c2cccnc2)sc1-c1ccc(Br)cc1	i	-3.6	-5%	3.4	-3.5	1.5	0.67
CC(C)CN(C(=O)CCNC(=O)c1ccc([N+](=O)[O-])cc1)C1CCS(=O)(=O)C1 (stereo unspecified)	i	-4.4	-13%	-4.4	0.8	/	0.69
COc1ccc(S(=O)(=O)N2CCCCCC2)cc1NS(=O)(=O)c1cc(C(=O)O)cc(C)c1C	i	0.7	3%	1.6	1.9	/	0.72
COc1ccc2[nH]c(=O)c(CNc3ccccc3OC)cc2c1	i	7.0	20%	18	-8.6	-29	0.66
COC(=O)[C@@H](NC(=O)NC1CCCCC1C)C(C)C (stereo partly specified)	i	14	15%	0.8	2.2	4.6	0.7
COC(=O)/C(C#N)=C/c1c(Oc2cccc(C)c2)nc2ccccn2c1=O	i	-2.6	10%	1.9	-0.7	6.4	0.64
COc1c2c(c(C)c3c1C(=O)OC3)O[C@@]1(C)CC[C@@]3(O)C(C)(C)OC(=O)CC[C@]3(C)[C@H]1C2	i	-0.6	/	-2.0	8.1	-2.1	0.75
CN(C(=O)c1ccc(NC(=O)Cc2ccc(NC(=O)C3CCN(C(=O)C4CCC4)CC3)cc2)cc1)C1CCCC1	i	6.6	2%	1.7	1.1	/	0.71
Cc1sc(NC(=O)CSc2nnc(C(C)C)n2C)c(C#N)c1C	/	/	6%	0.7	1.3	3.0	0.73
COc1ccccc1N1CCN(C(=O)COc2cccc3ccccc23)CC1	i	-4.8	/	-3.3	3.7	-5.6	0.69
O=C(O)C1C2C=CC(O2)C1C(=O)Nc1ccc(S(=O)(=O)N2CCc3ccccc32)cc1 (stereo unspecified)	/	/	5%&4%	-3.8	3.3	-4.1	0.68
Cc1cc(C)n(C(=O)c2cc3sccc3[nH]2)n1	/	/	31%	-0.9	2.6	-2.3	0.7
COc1cc2[nH]c(=S)nc(NCc3cccc(Cl)c3)c2cc1OC	i	1.1	-89%	4.0	-14	?	0.66
Cc1csc(NC(=O)CCn2c(=O)oc3ccc(Cl)cc32)n1	i	-2.7	/	0.7	5.3	-3.7	0.68
